# Screening data deposited in PubChem BioAssay by National Center for Advancing Translational Sciences (NCATS).
# ClpP mod = qHTS Assay for Activators of ClpP. purified B. subtilis ClpP, FRET peptide cleavage, 20 min. Potency, µM (titrated, usually from 57.5 µM), for the others: top-dose activity change, negative = active. actives 1.9% (n = 340,000); active = well fitted falling curve with a large enough effect; inconclusive = small, poorly fitted or top-dose-only effect; inactive = no such curve, though single readings can be large or run the other way; further: the source files actives as falling curves though it sought activators and does not explain the sign; nearly all actives have a fitted effect of over 65% in size; many hits overshoot -100%
# Target sequence (P80244 whole entry, looked up): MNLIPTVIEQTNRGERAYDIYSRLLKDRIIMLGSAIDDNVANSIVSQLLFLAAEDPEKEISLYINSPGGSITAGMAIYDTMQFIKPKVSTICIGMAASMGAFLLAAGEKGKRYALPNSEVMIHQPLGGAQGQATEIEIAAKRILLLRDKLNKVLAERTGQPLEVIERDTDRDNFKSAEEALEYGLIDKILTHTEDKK
#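 FRET quenching reversal measured ClpP activation: 10 microg/mL B. subtilis ClpP at pH 8 with the FRET-FV decapeptide, read at 430 nm after 320 nm excitation. The 20-min minus 0-min signal was scaled between DMSO/no-enzyme wells and ADEP (5.8 microM final).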
# Active calls of the source: *; ? = inconclusive. Potency means the concentration at half of the fitted maximal effect.
molecule	ClpP mod
Cc1cccc(C)c1NC(=O)C(c1ccnc2ccccc12)N1CCN(C)CC1 (stereo not given)	?
COc1ccc(/C=C/c2ccccn2)cc1	1.1%
O=c1c(-c2cccnc2)nc2ccccc2n1C(c1ccccn1)c1nc2ccccc2[nH]1 (stereo not given)	4.8%
O=C1c2c(-c3ccc(Br)cc3)noc2CCN1Cc1cn(Cc2ccccc2)nn1	0.9%
O=C(NCc1ccccc1)C(c1ccncc1)n1c(=O)c(-c2ccco2)nc2ccccc21 (stereo not given)	4.1%
O=c1c2cc3ccccc3nc2ncn1CCc1ccc(Cl)cc1	-26%
Cc1ccccc1CN1Cc2cccc3c2[C@H](C=CC3)CC1=O	2.3%
O=C(NCc1ccccc1)C(c1ccccc1)n1c(C2CC2)nc2ccccc21 (stereo not given)	-19%
CCCCc1c(C)[nH]c2c(OC)cccc2c1=S	4.4%
CC(C)(C)NC(=O)C1C(c2ccccc2)=Nc2ccccc2N1C(=O)c1ccc(C(F)(F)F)cc1 (stereo not given)	-2.7%
COCCCNC(=O)C[C@@H]1C[C@@]2(C(=O)OC)CC(C)(C)CC=C2N(Cc2cccc3ccccc23)C1=O	-0.3%
CN(C)c1ccc(/C=[N+]2\C(=O)CC(=O)NC2=O)cc1	0.6%
Cc1nnsc1-c1nc2ccccc2n1C(CCc1ccccc1)c1nc2ccccc2[nH]1 (stereo not given)	-14%
COC(=O)[C@H](NC(=O)c1cc(-c2ccccc2)sc1N)C(C)C	-9.7%
c1cc2c3c(c1)CCC[N+]3(C1CCCCC1)CCC2	?
COc1ccc(C2=Nc3ccccc3N(C(=O)c3cnccn3)C2C(=O)NC2CCCC2)cc1 (stereo not given)	-2.1%
Cc1cccc(C)c1NC(=O)C(c1ccccc1OC(F)(F)F)N1CCN(C)CC1 (stereo not given)	?
c1ccc(N2[C@@H]3c4ccccc4C[C@H]2c2ccccc23)cc1	0.0%
Cc1ccc(N2CCN(C(=O)C(=O)c3ccc4c(c3)OCO4)CC2)cc1	-4.8%
CCc1c(C2CC2)ncn1Cc1cccc(-c2ccccc2)c1	1.1%

# Some of these compounds in order of heavy-atom count, highest first.
molecule	ClpP mod
COc1ccc(C2=Nc3ccccc3N(C(=O)c3cnccn3)C2C(=O)NC2CCCC2)cc1 (stereo not given)	-2.1%
Cc1ccc(N2CCN(C(=O)C(=O)c3ccc4c(c3)OCO4)CC2)cc1	-4.8%
COc1ccc(/C=C/c2ccccn2)cc1	1.1%

# Going on with the list.
molecule	ClpP mod
O=C1Nc2ccccc2-n2nnnc2C1N1CCN(CCN2CCOCC2)CC1 (stereo not given)	-1.6%
COc1ccc(C(=O)C[n+]2cccc3cccc(O)c32)cc1	-1.4%
CC(C)(C)NC(=O)C(CCc1ccccc1)n1c(=O)c(-c2cc3ccccc3[nH]2)nc2ccccc21 (stereo not given)	-21%
CCCCNC(=O)C(NC(=O)Cc1cc(OC)cc(OC)c1)C(=O)c1ccccc1 (stereo not given)	-1.7%
O=C(C(=O)N1CCC(Cc2ccccc2)CC1)c1ccccc1Br	1.5%
COC(=O)C[C@H]1C=C[C@H](NC(=O)c2cccc(F)c2)[C@@H](CO)O1	-1.3%
CC(=O)N1CCC(C(=O)N2c3ccccc3N=C(c3ccc(C(F)(F)F)cc3)C2C(=O)NC(C)(C)C)CC1 (stereo not given)	-4.3%
CC(C)CCN1C(=O)CSCC1(C)C(=O)NC(C)C (stereo not given)	0.4%
CSCCC(C(=O)Nc1c(C)cccc1C)n1c(COc2ccc(C)cc2)nc2ccccc21 (stereo not given)	1.3%
CC(C)(C)NC(=O)C(c1cc2ccccc2o1)n1c(=O)c(-c2cc3ccccc3[nH]2)nc2ccccc21 (stereo not given)	-9.0%
O=[N+]([O-])c1cccc2[nH]cnc12	-1.1%
Cc1ccc(S(=O)(=O)N2c3ccccc3OC(C(=O)OC(C)(C)C)(C(=O)OC(C)(C)C)C2CC(=O)c2ccccc2)cc1 (stereo not given)	-2.0%
CC(C)NC(=O)C1(C)CN(S(C)(=O)=O)CC(=O)N1Cc1ccc2c(c1)OCO2 (stereo not given)	-0.5%
C#CCNC(=O)C[C@@H]1C[C@@]2(C(=O)OCC)CCCC=C2N(CCC2=CCCCC2)C1=O	2.4%
Cc1ccc(S(=O)(=O)C[C@@H]2OC[C@H](Cc3ccccc3)N2S(=O)(=O)c2ccc(C)cc2)cc1	-1.2%
CCCCCCCN(c1ccccc1)C1C[C@H]2CCCC(=O)N3CC[C@@H](C1)[C@@H]23 (stereo not given in full)	1.0%
Cc1cc[n+](CCC2CCCCC2)cc1	-0.6%
CC1(C(=O)NCc2ccccc2)CN(S(C)(=O)=O)CC(=O)N1CCc1ccc(O)cc1 (stereo not given)	0.7%
O=C(C[C@H]1C=C[C@@H](NC(=O)Cc2cccnc2)[C@@H](CO)O1)NCc1ccc2c(c1)OCO2	-0.6%
CCC(C(=O)NC1CCCC1)n1c(C2CCCC2)nc2ccccc21 (stereo not given)	-1.7%

# Next part (2 carried over from the part before).
molecule	ClpP mod
O=C(C[C@H]1C=C[C@@H](NC(=O)Cc2cccnc2)[C@@H](CO)O1)NCc1ccc2c(c1)OCO2	-0.6%
CCC(C(=O)NC1CCCC1)n1c(C2CCCC2)nc2ccccc21 (stereo not given)	-1.7%
O=C(O)C1=CCC(c2ccc(Cl)c(Cl)c2)N(S(=O)(=O)c2ccc(F)cc2)C1c1cccc(F)c1 (stereo not given)	0.9%
Cc1ccc(S(=O)(=O)N2[C@H](CC(=O)c3ccc(F)cc3)OC[C@@H]2C(C)C)cc1	-2.7%
O=C(C(=O)N1CCN(c2ccccc2)CC1)c1ccco1	1.0%
CC(C)[C@@H](NC(=O)OC(C)(C)C)c1cc(C(=O)c2c(-c3ccccc3)[nH]c3ccccc23)c(N)s1	-28%
COc1ccc(C(=O)C[C@@H]2OC[C@H](Cc3ccccc3)N2S(=O)(=O)c2ccc(C)cc2)cc1OC	-1.7%
O=C(NCc1ccccc1)C1C(=O)Nc2ccccc2C(=O)N1Cc1ccccc1 (stereo not given)	-17%
COc1ccc(C(C(=O)NC(C)(C)C)n2c(-c3ccc(-c4ccccc4)cc3)nc3ccccc32)cc1 (stereo not given)	4.7%
COC(=O)C[C@H]1C=C[C@H](NC(=O)c2ccc(F)cc2)[C@@H](CO)O1	-32%
CC(=O)CC1N(S(=O)(=O)c2ccc(C)cc2)c2ccccc2N1S(=O)(=O)c1ccc(C)cc1	-0.1%
COc1ccc(OC)c2c(C)ccnc12	0.8%
COC(=O)[C@@]12C[C@@H](CC(=O)NCc3cccc(C(F)(F)F)c3)C(=O)N(Cc3ccc4c(c3)OCO4)C1=CCC(C)(C)C2	-1.7%
O=C(CC1CC1)N[C@@H]1CC[C@@H](CCNS(=O)(=O)c2ccc(F)cc2)O[C@@H]1CO	-1.2%
CCCCCNC(=O)C(c1ccc(-c2ccccc2)cc1)n1c(=O)c(-c2ccccc2)nc2ccccc21 (stereo not given)	?
Cc1cnccn1	-0.1%
CC(C)(C)N1C(=O)c2ccccc2NC(=O)C1C(=O)NCCOc1ccccc1 (stereo not given)	-2.6%
O=c1[nH]nc2c3ccccc3occ1-2	1.1%
C[N+]1(CC(=O)c2ccc(Oc3ccccc3)cc2)CCOCC1	1.0%
Cc1ccc(SC[C@H](Cc2ccccc2)N2CC[C@@H](C(C)(C)C)CCC2=O)cc1	-3.6%
COc1ccc(C2=Nc3ccccc3N(C(=O)c3ccc(C(F)(F)F)cc3)C2C(=O)Nc2c(C)cccc2C)cc1 (stereo not given)	-3.1%
Cc1csc(-c2nc3ccccc3n2C(C(=O)NC(C)(C)C)c2cc3ccccc3o2)c1 (stereo not given)	4.3%
COc1cccc(Cn2c(C(C)n3c(-c4cnccn4)nc4ccccc43)nc3ccccc32)c1 (stereo not given)	?
O=C(NCc1ccccc1)C1C(c2ccc3c(c2)OCO3)=Nc2ccccc2N1C(=O)c1cccc2ccccc12 (stereo not given)	?
CC(C)c1cc(Cn2c3ccccc3c(=O)n2C(C)Cn2cc(CCCC#N)nn2)on1 (stereo not given)	4.2%
CCCCNC(=O)C1C(c2ccc(OC)cc2)=Nc2ccccc2N1C(=O)c1ccc2ncccc2c1 (stereo not given)	1.6%
CNc1ccc(/C=C2\C=Cc3ccccc32)cc1	-0.2%
CO[C@@H]1CN(C)C(=O)c2ccc(NC(=O)C3CCCC3)cc2OC[C@@H](C)N(Cc2ccc(F)cc2)C[C@H]1C	-1.2%
C[C@H](NC(=O)C[C@@H]1C=C[C@@H](NC(=O)CN2CCOCC2)[C@@H](CO)O1)c1ccccc1	-0.8%
Cc1ccnc2c(O)cccc12	1.2%
COc1cc(C(=O)C(=O)N2CCN(c3ccccc3)CC2)cc2ccccc12	-1.6%
Cc1cccc(C)c1N1C(=O)c2ccccc2NC(=O)C1C(=O)Nc1ccc(N2CCOCC2)cc1 (stereo not given)	-10%
O=C(NC1CCCC1)C(c1ccc(F)cc1)N1CCC(O)(c2ccc(Cl)cc2)CC1 (stereo not given)	1.6%
O=c1c(-c2ccco2)nc2ccccc2n1C(c1ccccn1)c1nc2ccccc2[nH]1 (stereo not given)	4.3%
CCCCN1C(=O)C(CC(=O)NCC2CCCCC2)CC(C(=O)N2CCCCCC2)=C1C (stereo not given)	-2.1%
CC(=O)N1c2ccccc2N=C(c2ccc(C(F)(F)F)cc2)C1C(=O)NC(C)C (stereo not given)	-7.0%
Cc1cnnc2ccccc12	-0.7%
Cc1cc(C)c2c(n1)NCCC2	4.1%
CCOC(=O)[C@]12CCCC=C1N(Cc1ccccc1)C(=O)[C@H](CC(=O)N1CCC(c3ccccc3)CC1)C2	0.3%
CCCCCNC(=O)C1C(=O)Nc2ccccc2C(=O)N1C(C)(C)C (stereo not given)	-9.0%
O=C(C[C@H]1CC[C@H](NC(=O)Nc2ccccc2F)[C@@H](CO)O1)NCc1ccc(-c2ccccc2)cc1	-1.8%
O=C(NC1CCCCC1)C(c1ccc(-c2ccccc2)cc1)n1c(=O)c(-c2ccco2)nc2ccccc21 (stereo not given)	-16%
O=C(NCc1ccccc1)C(c1cc2ccccc2o1)n1c(=O)c(-c2ccco2)nc2ccccc21 (stereo not given)	0.2%
FC(F)(F)c1cccc(-c2nc3ccccc3n2C(c2ccccc2)c2nc3ccccc3[nH]2)c1 (stereo not given)	4.8%
COC(=O)[C@@]12C[C@@H](CC(=O)N3CCCCC3)C(=O)N(CCc3ccc(OC)c(OC)c3)C1=CCC(C)(C)C2	-2.4%
COc1ccc(CNC(=O)C[C@@H]2C=C[C@@H](NS(=O)(=O)c3cccc(OC)c3)[C@@H](CO)O2)cc1	0.4%
COC(=O)[C@@]12C[C@@H](CC(=O)N3CCN(C(=O)c4ccco4)CC3)C(=O)N(Cc3ccc4c(c3)OCO4)C1=CCC(C)(C)C2	0.4%
O=C(NC1CCCCC1)C(C1CC1)n1c(=O)c(-c2cc3ccccc3[nH]2)nc2ccccc21 (stereo not given)	4.5%
CN(Cc1ccc(Cl)c(Cl)c1)C(C(=O)NCc1ccccc1)c1ccco1 (stereo not given)	-0.3%
CC(C)(C)NC(=O)C(c1ccccc1)n1c(=O)c(-c2ccco2)nc2ccccc21 (stereo not given)	4.5%
COc1ccc(C2=Nc3ccccc3N(C(=O)c3ccc(C)cc3)C2C(=O)NCc2ccccc2)cc1 (stereo not given)	?
COC(=O)C[C@H]1C=C[C@H](NC(=O)Nc2ccccc2F)[C@@H](CO)O1	-1.5%
O=C(C[C@@H]1CC[C@@H]2[C@H](COC[C@H](O)CN2Cc2cccc(C(F)(F)F)c2)O1)NCc1ccc(Cl)cc1	0.3%
Cc1cc(C)c2cc(C#N)c(NCCNC(=O)c3ccccn3)nc2c1	-27%
COc1ccc(NC(=O)C2C(c3ccc4c(c3)OCO4)=Nc3ccccc3N2C(=O)c2cccc(C(F)(F)F)c2)cc1 (stereo not given)	-9.3%
Cc1csc[n+]1CCC1CCCCC1	-0.7%

# Given field by field: part of the list above.
> O=C(NCc1ccccc1)C(c1cc2ccccc2o1)n1c(=O)c(-c2ccco2)nc2ccccc21 (stereo not given)
  ClpP mod: 0.2%
> COC(=O)C[C@H]1C=C[C@H](NC(=O)Nc2ccccc2F)[C@@H](CO)O1
  ClpP mod: -1.5%

# Some of the entries above, reformatted:
O=C(NCc1ccccc1)C(c1cc2ccccc2o1)n1c(=O)c(-c2ccco2)nc2ccccc21 (stereo not given)
- ClpP mod = 0.2%
FC(F)(F)c1cccc(-c2nc3ccccc3n2C(c2ccccc2)c2nc3ccccc3[nH]2)c1 (stereo not given)
- ClpP mod = 4.8%
COC(=O)[C@@]12C[C@@H](CC(=O)N3CCCCC3)C(=O)N(CCc3ccc(OC)c(OC)c3)C1=CCC(C)(C)C2
- ClpP mod = -2.4%
COc1ccc(CNC(=O)C[C@@H]2C=C[C@@H](NS(=O)(=O)c3cccc(OC)c3)[C@@H](CO)O2)cc1
- ClpP mod = 0.4%

# An excerpt; rates above refer to the full screens.
